Screening data (PubChem)
NPYLR7 agonist: agonists of mosquito NPYLR7 receptor, primary screen, cell-based, Aedes aegypti, calcium fluorescence, mosquito biting behavior; 270,000 tested, 0.15% active; AID 1259423, 2018; HEK293T NPYLR7/Galpha15, GCaMP6s calcium fluorescence; activation, % at 10 µM; in the data active = activation above about 40%;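 note: 0% = vehicle and 100% = reference agonist at the receptor; some compounds past the cut are filed as inactive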
NPYLR7 agonist max-min: second read-out of NPYLR7 agonist, no call of its own (marks repeat the call); activation, %; measured here: Max-Min RFU normalised activation; some inactives read as strong as hits;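 span of the calcium signal over five minutes; 0% = vehicle and 100% = native peptide agonist; compound fluorescence can raise it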
* hit, by the source's call; & = joins results of further samples.

cpd	canonical_smiles	NPYLR7 agonist max-min	NPYLR7 agonist
1	Cn1cc(C(O)CNC(=O)NC(c2ccc(F)cc2)C2CCC2)cn1 (stereo unspecified)	-12	1
2	O=C(CSc1nnc(-c2cccc(Br)c2)o1)N1CCCCC1	16	14
3	CCc1nc2c(sc3cccc(F)c32)c(=O)n1CC(=O)NCc1ccc(C)cc1	-12	-3
4	Cn1cccc1C(=O)N1CC[C@H](NC(=O)NC2CCCCC2)[C@H]1C(=O)N1CCC[C@@H]1C(N)=O	-12	-1
5	CC1(C)CC(=O)C2=C(C1)OC(=N)C(C#N)C2c1c(Cl)cccc1Cl (stereo unspecified)	-21	-15
6	O=c1nc(SCc2ccccc2Cl)c2c(n1Cc1cccnc1)CCC2	-3	-4
7	CC(C)(Sc1ccc(CCN(CCCCC2CCCCC2)C(=O)NC2CCCCC2)cc1)C(=O)O	-24	-2
8	COc1ccccc1NC(=O)Cn1nc(Nc2ccc(C)cc2)c(S(=O)(=O)c2ccccc2)c1N	-3	6
9	COC(=O)C12CCC(C)(C(O)C1)C2(C)C (stereo unspecified)	-3	-2
10	O=C1C(C(c2ccco2)N2CCN(c3ccccc3)CC2)Sc2nc(-c3ccco3)nn21 (stereo unspecified)	1	0
11	COC(=O)[C@@H]1C[C@H](NC(=O)c2cnc(OC)nc2)CN1C	-2	-2
12	Cc1ccc(C(=O)N2CCC3(CC2)C(=O)NCCN3C)c2ccccc12	9	18
13	CC(C)(C)c1ccc2c(c1)CC(CNC(=O)c1ccco1)O2 (stereo unspecified)	27	17
14	COc1cccc(C(=O)Nc2ccc(N3CCN(c4ccccc4OC)CC3)c(C(=O)N3CCCCC3)c2)c1	18	10
15	CNC(=O)[C@@H]1C[C@@H](N)CN1C(=O)c1cccc(NCc2ccc(F)cc2)c1	-9	-7
16	CC(C)(C)c1cc(NC(=O)c2ccc(F)c(C(F)(F)F)c2)n(-c2ccccc2Cl)n1	13	22
17	Cc1ccc(S(=O)(=O)N=C2C=C(ON=C3C=CC(=O)C=C3)C(=O)c3ccccc32)cc1	-6	1
18	CN(Cc1nc2ccc(F)cc2[nH]1)Cc1nc(C(c2ccccc2)c2ccccc2)no1	4	3
19	CCN1N=C(C(=O)N2CCC(c3nc(-c4ccncc4)cs3)CC2)CCC1=O	24	0
20	CCOC(=O)Cn1c(=O)c2c(nc3n2CCN3c2ccc(C)c(Cl)c2)n(C)c1=O	10	1

Later entries:
cpd	canonical_smiles	NPYLR7 agonist max-min	NPYLR7 agonist
21	Fc1cccc(Cl)c1CSC1=Nc2ccccc2CS1	-3	0
22	O=C1SC(Nc2ccc(Br)cc2)C(=O)N1CCN1C(=O)c2ccccc2C1=O (stereo unspecified)	10	11
23	O=C(O)c1ccc(/C=C2\SC(=Nc3ccccc3)N(c3ccccc3)C2=O)cc1	-5	0
24	O=C(C1CCCC1)N1CCCC(N2CCN(c3ccccc3)CC2)C1 (stereo unspecified)	2	0
25	CCC(Nc1cccc(OC)c1)C(=O)NCc1cnc(C)cn1 (stereo unspecified)	-4	-3
26	COCCNC(=O)Cn1nc2c(c1N)CSC2	-2	-3
27	C/C(=N/N=C1\NC(=O)C(CC(=O)Nc2cccc(Cl)c2Cl)S1)c1ccc(Cl)cc1 (stereo unspecified)	2	5
28	Cc1cc(=O)n2c(n1)SCC2CC(=O)N1CCC(C(N)=O)CC1 (stereo unspecified)	1	0
29	Cc1cc(C)cc(N2CCN(C(=O)CC3C(=O)NCCN3C3CCCC3)CC2=O)c1 (stereo unspecified)	3	12
30	Cc1ccsc1C(=O)NC1CC(=O)N(CCCc2ccccc2)C1 (stereo unspecified)	0	2
31	COCC(O)CN1CCC(=O)N(CC=C(C)C)Cc2ccccc21 (stereo unspecified)	3	1
32	CCOC(=O)c1cc(-c2ccc(N3CCN(C(=O)C(C)Oc4ccccc4)CC3)cc2)n(-c2ccc(F)cc2)n1 (stereo unspecified)	2	8
33	Cc1ccn(-c2ccccc2NC(=O)C2=NN(C(C)C)C(=O)CC2)n1	-1	2
34	COC(=O)CN1C(=O)C(C)ON=C1c1cnccn1 (stereo unspecified)	-5	-6
35	COCCNC(=O)C(NC(=O)CC(C)C)C1CCN(C(=O)c2cccc(Br)c2)CC1 (stereo unspecified)	3	-3
36	CC(C)CC1(CO)CCCN(C(=O)c2cccc(C#CC(C)(C)O)c2)C1 (stereo unspecified)	0	1
37	Cc1cccc(C(C(=O)N(C)CCc2noc(C3CC3)n2)N(C)C)c1 (stereo unspecified)	-3	6
38	CC(C)C(=O)Nc1cccnc1-c1ccc(Cl)s1	-5	5
39	O=C(NCc1ccccn1)c1csc(COc2cccc(F)c2)n1	9	3
40	CCSc1nnc(NC(=O)CSc2nc3c([nH]c4ccccc43)c(=O)n2C)s1	20	3

Whole records, looked up by structure. Screens in order: NPYLR7 agonist max-min	NPYLR7 agonist
CCOC(=O)Cn1c(=O)c2c(nc3n2CCN3c2ccc(C)c(Cl)c2)n(C)c1=O in the list: 10	1
CC(C)CC1(CO)CCCN(C(=O)c2cccc(C#CC(C)(C)O)c2)C1 (stereo unspecified) in the list: 0	1
Cc1ccsc1C(=O)NC1CC(=O)N(CCCc2ccccc2)C1 (stereo unspecified) in the list: 0	2
COCC(O)CN1CCC(=O)N(CC=C(C)C)Cc2ccccc21 (stereo unspecified) in the list: 3	1
O=C1C(C(c2ccco2)N2CCN(c3ccccc3)CC2)Sc2nc(-c3ccco3)nn21 (stereo unspecified) in the list: 1	0

The list goes on:
cpd	canonical_smiles	NPYLR7 agonist max-min	NPYLR7 agonist
41	O=C(O)[C@H]1C[C@@H](O)CCN1Cc1cnn(-c2ccccc2)c1	9	15
42	Cc1cc(=O)n2c(-c3ccccc3C)n[nH]c2n1	-14	-8
43	NC1CCC(n2cc(C(=O)N3CCCC(Nc4ccc(F)cc4)C3)nn2)CC1 (stereo unspecified)	6	9
44	COc1ccc(-c2csc(=Nc3cccc(OC)c3)n2CC2CCCO2)cc1 (stereo unspecified)	-11	-4
45	CCN(CC)C(=O)Cn1cc(C(=O)N2CCC(C(C)N3CCOCC3)CC2)nn1 (stereo unspecified)	0	3
46	CC(C)Cn1c(=O)c(C#N)cc2c(=O)n3ccccc3nc21	5	7
47	O=C(c1cc(COc2cccc3cnccc23)on1)N1CCCC1c1ccccn1 (stereo unspecified)	-1	3
48	Cc1ccsc1-c1cnc(OC(C)(C)C)nc1OC(C)(C)C	-2	-1
49	COCCN1CCCC(O)(CN2CCN(c3cnccn3)CC2)C1=O (stereo unspecified)	5	1
50	Cc1ccc(/C=N\Nc2nc(=O)[nH]c(C)c2C(=O)Nc2ccc(Cl)cc2)cc1	3	1
51	CCn1cnnc1CNC(=O)NCC1CCCN(Cc2ccccc2)C1 (stereo unspecified)	-5	-1
52	N=c1c2ccccc2ncn1NC(=O)c1ccncc1	11	0
53	COc1cccc(-c2cc(C(F)(F)F)ccn2)c1OC	6	2
54	CC12CC(NC(=S)N1c1ccc(F)cc1F)c1ccccc1O2 (stereo unspecified)	-7	5
55	CCc1nn(-c2ccc(F)cc2)c(N2CCN(C(C)C)CC2)c1CN(CC(C)C)C(=O)C1CCCCC1	14	6
56	CCOc1ccc(NC(=O)CSc2nccn(-c3ccc(OCC)cc3)c2=O)cc1	6	0
57	CCN(CC)C(=O)CCN1C(=O)C(=Cc2ccc(OC)cc2)SC1=S	-10	-6
58	CCC(=O)N(CCCOC)Cc1csc(COc2ccc(C)cc2)n1	0	-9
59	CCCCCc1nc2ccc(C)cn2c1NCc1ccccc1	-6	-6
60	CCN(CC)c1onc(-c2ccccc2)c1CN(CCOC)C(=O)CC(C)C	2	3

Next section:
cpd	canonical_smiles	NPYLR7 agonist max-min	NPYLR7 agonist
61	COc1cnc(N2CCOC(c3ccc(Cl)c(Cl)c3)C2)nc1 (stereo unspecified)	-3	4
62	Cc1cc(C)n(Cc2cc(C(=O)N3CCSCC3)n[nH]2)n1	0	1
63	CSCC[C@@H](CO)NC(=O)c1cn(-c2ccccc2)nn1	10	15
64	CSc1ccc(C(=O)NCCc2cccc(CN(C)C)c2)o1	7	7
65	CCOc1ccccc1-c1nc(CN2CCN(c3cccc(OC)c3)C(=O)C2)c(C)o1	0	3
66	CCn1c(C2CCN(C(=O)CCc3cc(Cl)no3)CC2)nn(C)c1=O	-1	1
67	COC(=O)c1nnn(-c2ccc(OC)cc2OC)c1C(=O)OC	6	6
68	CCOC(=O)c1c(C)c(C(=O)CN(Cc2ccco2)C(=O)c2cc(C(F)(F)F)cc(C(F)(F)F)c2)c(C)n1CC	-10	-12
69	C#CCNC(=O)C(C)SC(C)c1ccc(F)cc1 (stereo unspecified)	3	1
70	CN(C)CCN(Cc1cccc(O)c1)C(=O)CCc1cc(Br)cs1	-4	-3
71	CCC1CN(CC=C(C)C)CCC(=O)N1Cc1ccccc1 (stereo unspecified)	-10	-1
72	N#CC(c1ccccn1)c1ccnc(N2CCCC3CCCCC32)n1 (stereo unspecified)	-2	1
73	COC(=O)CC1(NC(=O)c2cc(N3CCNC3=O)ccc2F)CCC1	-2	-1
74	O=C(NCCC1COc2ccccc2O1)c1ccc(-c2cccc(F)c2)nc1 (stereo unspecified)	-8	-2
75	CCC(C)C(C)=NNc1nc2ccccc2[nH]1 (stereo unspecified)	-5	-7
76	Cc1cc(C)n(CCCN(C)C(=O)c2cnc(C)nc2C)n1	-4	-2
77	COc1cccc(C(=O)N2CCSC23C(=O)N(C(C)C)c2ccccc23)c1 (stereo unspecified)	13	16
78	CCCn1ncc(CN2CCCC(C(=O)c3ccc(OC)cc3OC)C2)c1C (stereo unspecified)	2	8
79	O=C1CCCN1C1CCN(Cc2c[nH]c(=O)[nH]c2=O)CC1	10	14
80	CC(C)C1CCC(C(=O)N[C@@H](Cc2ccccc2)C(=O)O)CC1 (stereo partly specified)	-24	-16

Fetched one by one from the list above, 3 records:
cpd	canonical_smiles	NPYLR7 agonist max-min	NPYLR7 agonist
76	Cc1cc(C)n(CCCN(C)C(=O)c2cnc(C)nc2C)n1	-4	-2
78	CCCn1ncc(CN2CCCC(C(=O)c3ccc(OC)cc3OC)C2)c1C (stereo unspecified)	2	8
65	CCOc1ccccc1-c1nc(CN2CCN(c3cccc(OC)c3)C(=O)C2)c(C)o1	0	3

Continuation.
cpd	canonical_smiles	NPYLR7 agonist max-min	NPYLR7 agonist
81	Cc1nc2c(c(=O)[nH]1)CCN(C(=O)c1c(-c3ccccc3Cl)noc1C)C2	0	1
82	O=c1cnnc(Nc2ccc3c(c2)OCCO3)[nH]1	-3	0
83	C=CCN(CC1CC(c2ccc(F)cc2)=NO1)C(=O)C1CCC1 (stereo unspecified)	13	10
84	CCc1c(C)nc(-n2nc(C)cc2C)n(CC(=O)Nc2ccc(NC(C)=O)cc2)c1=O	-2	2
85	N#Cc1ccc(C=C2N=C(c3ccc(Cl)cc3)OC2=O)cc1	11	3
86	O=C(Nc1cccc2nsnc12)Nc1cccc2[nH]c(COCCO)nc12	20	-2
87	O=C(NCCNc1nc(-c2ccccc2Cl)nc2cc(Cl)ccc12)c1ccc(C(F)(F)F)cc1	15	7
88	COC(=O)Cn1cnc2c(nnn2Cc2ccc(C)cc2)c1=O	10	5
89	COc1cc(C(=O)Nc2ccc(-c3cnco3)cc2)ccc1C	3	7
90	COCCNC(=O)C(NC(=O)c1ccccc1)C1CCN(C(=O)c2cccc(C(F)(F)F)c2)CC1 (stereo unspecified)	1	4
91	CC(C)NC(=O)Cn1c(CO)cnc1SCc1ccccc1	2	6
92	Cc1cc(C)nc(NNC(=O)c2cc(F)cc(F)c2)n1	1	5
93	CC1(C(=O)NS(=O)(=O)c2ccccc2)CCN1C(=O)CCC1CCCC1 (stereo unspecified)	2	6
94	CC(C)(C(=O)N1CCC1(C)C(=O)NS(=O)(=O)c1ccccc1C(F)(F)F)c1ccccc1 (stereo unspecified)	-10	-5
95	CCCNC(=O)NCc1cc(C)cc2c(C)c(CC)[nH]c12	-2	1
96	CC(C)c1nnsc1CNC(=O)c1cc(-c2cccs2)nn1C	-5	9
97	CCOc1ccc(NC(=O)c2c(NC(=O)c3ccccc3Cl)sc3c2CCCC3)cc1	7	1
98	CCN(CC)c1ccc(C2C(C#N)=C(C)NC3=C2C(=O)CC(c2ccc(OC)cc2)C3)cc1 (stereo unspecified)	-3	-1
99	COc1cccc(NC(=O)N2CCC3(CC2)C(=O)N(CC(=O)Nc2cccc(Cl)c2)CN3c2ccccc2)c1	9	4
100	Cc1ccc(OC2(C(=O)NCCN3C(=O)CCC3=O)CCNCC2)cc1	10	20

Later entries
cpd	canonical_smiles	NPYLR7 agonist max-min	NPYLR7 agonist
101	C=c1ccccc1=C1N=C(c2cn(CC(=O)Nc3ccc(C)c(F)c3)cn2)NO1	-2	0
102	Cc1cc(C)n(-c2ccc(Sc3ccc(Cl)cc3)nn2)n1	-4	-1
103	CCc1c(C)nc(-n2nc(C)cc2NC(=O)c2ccc(S(=O)(=O)N(C)C)cc2)[nH]c1=O	6	11
104	CC(C)COC(=O)Nc1cccc(NCC(=O)NC(C)C(C)C)c1 (stereo unspecified)	-11	-10
105	OC1(c2ccc(OC(F)F)cc2)C[N+]2=C(SCCC2)N1c1ccccc1 (stereo unspecified)	5	5
106	CC1CCc2c(sc3nc(CN4CCN(c5ccccc5F)CC4)[nH]c(=O)c23)C1 (stereo unspecified)	9	5
107	Cn1c(=O)c2c(ncn2CCNc2ccccc2Cl)n(C)c1=O	7&-2	16&-2
108	CCN1CCN(C(=O)c2ccc(N3CCC(NCc4cc5ccccc5s4)CC3)cc2)CC1	9	22
109	Cc1ccccc1C1CCN(CCn2cnnc2)C1 (stereo unspecified)	-3	-2

This is a subset (hit frequency here may not be typical).
